# Compound activity deposited in PubChem by Center for Chemical Genomics, University of Michigan.
# TAR Tat displ = HIV-1 TAR-Tat binding disruption. z-score (test concentration not listed). 100,000 compounds, 0.6% hits. AID 1259389. HIV-1 TAR RNA, Tat peptide displacement FRET; stronger effect = higher value;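 further: score is relative to mean and SD of negative controls; some compounds called inactive have numbers as strong as hits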
# CDC25B-CDK2 inh = human CDC25B-CDK2/CyclinA binding inhibition. P30305+P24941. HTRF CDC25B-CDK2/CyclinA binding, anti-His/anti-Flag; stronger effect = higher value. z-score (no concentration beside the values). 94,000 compounds, 0.72% hits;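 further: score is relative to mean and SD of negative controls; strong numbers were not always called active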
# Numbers without * were called inactive; / = not tested or not shown.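 How the source made its calls: active means z-score from 3 up in half or more of its runs; inactive means the rest.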
SMILES,TAR Tat displ,CDC25B-CDK2 inh
N#C/C(=C\c1cc(Br)cs1)C(N)=O,/,-1.64
O=C(OCc1cc(=O)n2nc(C3CC3)sc2n1)c1ccc(Cl)cc1,0.29,/
CN(C)CCCNC(=O)c1c(O)c2cccc3c2n(c1=O)CCC3,2.59,/
O=C1C2C(c3ccccc3)OC3(C(=O)c4ccccc4C3=O)C2C(=O)N1Cc1ccccc1 (centres undefined),-0.09,0.08
Cc1[nH]c(=O)[nH]c(=O)c1S(=O)(=O)N1CCCc2ccccc21,0.34,/
Cc1c(-c2ccn[nH]2)nnn1-c1cc(Cl)ccc1Cl,/,-1.7
Cc1oc(-c2ccc(Cl)cc2)nc1CSc1nc2ccncc2[nH]1,0.06,-3.16
O=S(=O)(CCN(C1CCCC1)S(=O)(=O)c1ccc(Br)cc1)N1CCNCC1,2.1,/
CN(C(=O)CSc1nc(-c2ccc3c(c2)OCO3)nc2cc(=O)[nH]n12)c1ccccc1,2.78,/
COc1ccccc1Nc1nc2ccccc2n2cnnc12,0.25,-0.83
O=C(c1cc2nc(-c3ccc(Br)cc3)cc(C(F)(F)F)n2n1)N1CCOCC1,1.38,/
O=C(NCCN1CCc2ccccc2C1)C1CCCN(c2ncnc3c2nc2n3CCCCC2)C1 (centres undefined),-0.53,/
CCOc1ccccc1NC(=O)c1cc(=O)c2ccccc2o1,/,1.2
CCOC(=O)C1=C(C)NC2=C(C(=O)C(C(=O)OC)C(C)C2)C1c1cccc2ccccc12 (centres undefined),2.84,-0.57
NS(=O)(=O)c1ccc(CCNC(=O)C2=Cc3cc(Br)ccc3OC2)cc1,0.5,/
CC1=C(C(=O)OCc2ccccc2)C(c2ccc(C)cc2)C2=C(CCCC2=O)N1 (centres undefined),-1.16,0.06
CCCSc1nc2c(c(=O)[nH]1)C(c1ccc(C(=O)OC)cc1)C(C(=O)OC)=C(C)N2 (centres undefined),2.74,-1.42
O=C(CSc1nc2ccccc2nc1N1CCOCC1)N1CCN(c2ccc(F)cc2)CC1,-0.89,-0.72
O=C(CN1C2=NCCCN2c2ccccc21)c1ccc2c(c1)OCO2,0.05,-2.13
CS(=O)(=O)CCC(C(=O)N1CCCCC1)N1Cc2ccccc2C1=O (centres undefined),0.06,/
COC(=O)c1ccc(C2NC(=O)c3n[nH]c(C)c32)cc1 (centres undefined),-0.29,-0.76
CCOC(=O)Cn1nc(-c2ccccc2)c2cnc3cc4c(cc3c21)OCO4,-1.38,/
Clc1cc(Cl)c2c(c1)C=C1CCCCC1(N1CCCC1)O2 (centres undefined),/,-1.99
Cc1ccc([N+](=O)[O-])c(C(=O)N(CCc2ccccn2)c2ccccc2)c1,/,-0.8
Brc1ccc(-c2ccc(Br)s2)s1,/,-2.04
O=C(Nc1cccnc1)c1cnc(N2CCOCC2)nc1,1.27,/
COc1cccc(-c2nc(Cc3ccccc3Cl)no2)c1,0.1,-0.66
CC1=C(C#N)C(c2ccccc2OC(C)C)C2=C(CC(c3ccc(Cl)cc3)CC2=O)N1 (centres undefined),3.13,-0.3
O=C(NCc1ccc2c(c1)OCO2)c1c(-c2ccccc2)c(-c2ccccc2)n[nH]c1=O,0.51,-0.02
O=S(=O)(NCc1ccccc1)c1ccc(-c2ccc(S(=O)(=O)NCc3ccccc3)cc2)cc1,1.06,-0.47

# Overlap with the part before: 2 compounds, followed by the next part.
SMILES,TAR Tat displ,CDC25B-CDK2 inh
O=C(NCc1ccc2c(c1)OCO2)c1c(-c2ccccc2)c(-c2ccccc2)n[nH]c1=O,0.51,-0.02
O=S(=O)(NCc1ccccc1)c1ccc(-c2ccc(S(=O)(=O)NCc3ccccc3)cc2)cc1,1.06,-0.47
Cc1ccc(C(=O)Cn2cncn2)cc1,2.06,0.37
O=C(O)c1cccc(N2C(=O)C3C4c5ccccc5C(c5ccccc54)C3C2=O)c1 (centres undefined),2.46,-0.64
COc1ccc(N2C(=O)C3N=NN(Cc4ccc(Cl)cc4)C3C2=O)cc1OC (centres undefined),-0.69,-0.5
Cc1ccc(C)c(Cn2c(C3CCCO3)nc3ccccc32)c1 (centres undefined),1.37,0.73
Cc1cc(C)nc(NS(=O)(=O)c2ccc(N3C(=O)C4CC=C(Cl)CC4C3=O)cc2)n1 (centres undefined),/,-1.32
NC(=O)Cn1c(=O)n(CC2CCC(C(=O)NCc3ccco3)CC2)c(=O)c2sccc21 (centres undefined),0.75,/
Cc1cc(NC(=O)c2cnn(-c3ccccc3)c2-n2cccc2)no1,-0.17,0.26
CCc1cc(=O)oc2c(C)c(OC)ccc12,/,0.59
Cc1sc2c(c1C)CN(C(C)(C)C)CN2C(=O)c1ccccc1,-6.59,-2.56
CCC(CC)COC(=O)c1[nH]c2c(c1C)C(=O)CC(c1cccs1)C2 (centres undefined),1.06,-1.08
CCCCCSc1nnc2[nH]c(=O)cc(N)n12,1.05,-1.14
COc1ccc(S(=O)(=O)Nc2c(C)nc3nc(C)[nH]n3c2=O)cc1,1.18,-0.98
COc1ccc(CCNC(=O)C2CCCO2)cc1OC (centres undefined),/,-1.97
COCCNC(=O)Cn1c(=O)oc2cc(S(=O)(=O)N3CCCC3)ccc21,/,0.01
COc1ccc2ccccc2c1Br,/,3
Cc1ccc2nc(CCC(=O)O)[nH]c2c1,1.21,-1.6
O=C(c1ccco1)N1CCN(C(=O)c2ccc(-c3noc(-c4ccccc4)n3)s2)CC1,1.03,/
OC(Cn1cncn1)(Cn1cncn1)c1ccc(F)cc1F,0.99,/
CCc1ccc(C2CC(=O)Nc3c2c(C)nn3-c2nc3ccccc3s2)cc1 (centres undefined),0.78,-1.42
Cc1ccc(C(=O)COC(=O)CCCC(=O)Nc2ccccc2Cl)cc1[N+](=O)[O-],/,0.99
COc1ccc(Cn2nc3n(c2=O)-c2ccccc2OC3)cc1,1.01,1.98
Cn1c(C(=O)N2CCC(C(=O)NCCCN3CCOCC3)CC2)cc2sccc21,-0.8,0.37
O=C(Cc1csc2ccc(Cl)cc12)OCc1ccccc1,/,-1.6
Cc1c(C(=O)N2CCOCC2)oc2c1-c1nn(CC(=O)NCC3CCCO3)cc1CC2 (centres undefined),1.54,/
COc1cc(Nc2cc(-n3nc(C)cc3C)ncn2)cc(OC)c1,0.48,/
Cc1cc(C)cc(NS(=O)(=O)c2cccc3cccnc23)c1,2.69,-0.79
O=C(CN1CCCCCC1)OCCN=C1NS(=O)(=O)c2ccccc21,/,-0.59
CSc1ccccc1NS(=O)(=O)c1cc2c3c(c1)C(C)C(=O)N3CCC2 (centres undefined),1.69,/
CS(=O)(=O)c1scc(-c2ccc(Cl)cc2)c1C#N,/,-1.14
CCOc1ccc(N2CSC3=C(C#N)C(c4ccco4)CC(=O)N3C2)cc1 (centres undefined),-1.81,5.09*
N#Cc1nc(/C=C/c2ccc(Cl)cc2)oc1N1CCN(C(=O)c2ccccc2F)CC1,-0.35,-1.77
Nc1ccc2nc(SCc3ccccc3Cl)sc2c1,0.38,-1.87
CCCN1C(C(=O)c2ccccc2)=C(OC(=O)Cc2ccccc2)c2ccccc2S1(=O)=O,-1.03,-2.5
COc1ccc2c(c1)CCc1sc(NC(=O)c3ccco3)nc1-2,3.24,-1.89
CCN(CC)CCCn1c(C)c(C)c2c1ncn1nc(-c3ccccc3Br)nc21,1.14,-2.47
COc1ccc(CNc2nc3nc4c(c(=O)n3[nH]2)CCC4)cc1OC,1.27,-0.57
S=c1[nH]nc(Cc2ccc(Cl)c(Cl)c2)o1,/,-1.36
O=C1CCC2C(=O)N(CC(=O)N3CCCC3)C(=O)C2C1 (centres undefined),1.09,-0.82
COc1ccc(CN2CCc3nc(N4CCOCC4)ncc3C2)cc1,0.59,/
Cc1ccc(-c2n[nH]c3c2cnc2ccccc23)cc1,0.14,/
CC(=O)N1CCC(C(=O)O/N=C(\N)c2ccc(Cl)cc2)CC1,/,-1.09
O=C1c2cccnc2C(=O)N1Cc1ccc(S(=O)(=O)NCCc2ccc(Cl)cc2)s1,0.82,/
Cn1c(=O)c2c(nc(NC3CCCCC3)n2Cc2cccc(Br)c2)n(C)c1=O,/,-1.4
COCCCNS(=O)(=O)c1ccc(NS(=O)(=O)c2ccc(C)cc2)cc1,/,-0.45
O=C(NCCCSCc1ccco1)Nc1ccc(F)cc1,1.43,-0.68

# An excerpt from above in order of count of non-hydrogen atoms, lowest first:
SMILES,TAR Tat displ,CDC25B-CDK2 inh
S=c1[nH]nc(Cc2ccc(Cl)c(Cl)c2)o1,/,-1.36
CS(=O)(=O)c1scc(-c2ccc(Cl)cc2)c1C#N,/,-1.14
Nc1ccc2nc(SCc3ccccc3Cl)sc2c1,0.38,-1.87
Cc1ccc(-c2n[nH]c3c2cnc2ccccc23)cc1,0.14,/
O=C(NCCCSCc1ccco1)Nc1ccc(F)cc1,1.43,-0.68
Cc1cc(C)cc(NS(=O)(=O)c2cccc3cccnc23)c1,2.69,-0.79
COc1ccc2c(c1)CCc1sc(NC(=O)c3ccco3)nc1-2,3.24,-1.89
COc1cc(Nc2cc(-n3nc(C)cc3C)ncn2)cc(OC)c1,0.48,/
COc1ccc(CNc2nc3nc4c(c(=O)n3[nH]2)CCC4)cc1OC,1.27,-0.57
CSc1ccccc1NS(=O)(=O)c1cc2c3c(c1)C(C)C(=O)N3CCC2 (centres undefined),1.69,/
CCOc1ccc(N2CSC3=C(C#N)C(c4ccco4)CC(=O)N3C2)cc1 (centres undefined),-1.81,5.09*
Cn1c(=O)c2c(nc(NC3CCCCC3)n2Cc2cccc(Br)c2)n(C)c1=O,/,-1.4
CCN(CC)CCCn1c(C)c(C)c2c1ncn1nc(-c3ccccc3Br)nc21,1.14,-2.47
O=C1c2cccnc2C(=O)N1Cc1ccc(S(=O)(=O)NCCc2ccc(Cl)cc2)s1,0.82,/
N#Cc1nc(/C=C/c2ccc(Cl)cc2)oc1N1CCN(C(=O)c2ccccc2F)CC1,-0.35,-1.77
CCCN1C(C(=O)c2ccccc2)=C(OC(=O)Cc2ccccc2)c2ccccc2S1(=O)=O,-1.03,-2.5

# Continuation:
SMILES,TAR Tat displ,CDC25B-CDK2 inh
Cc1ccc2c(c1)C(O)(CC(=O)c1ccc(C)o1)C(=O)N2 (centres undefined),4.02,-1.58
COC(=O)c1cc(C)nc2c1c(=O)nc(SCc1cc(=O)n3ccccc3n1)n2C1CC1,-1.36,/
O=C(N/N=C/c1cc(Cl)cc(Cl)c1O)C(=O)Nc1ccc(Cl)c(Cl)c1,/,0.73
Cc1nn(CC(=O)NC2CCCC2)c(=O)c2cccn12,1.07,-2.33
CC(C)(C)S(=O)(=O)/C(C#N)=C/NN1CCCCC1,/,-1.46
CCOc1ccc2c(c1)C(=O)C(=O)N2C(C)=O,-0.52,-1.3
O=C(NCc1ccc(F)cc1)OCc1nccnc1C(=O)Nc1ccc(Br)cn1,0.91,-0.97
Cc1ccc(Nc2nc(N3CC(C)OC(C)C3)nc3c2cnn3C)cc1 (centres undefined),-0.37,/
COC(=O)c1sc(-c2ccc(Cl)cc2)cc1NC(=O)c1ccc2c(c1)CCO2,/,-1.62
CCCC1c2cccn2CCN1C(=O)NC1CCCC1 (centres undefined),-0.68,/
CC(=O)N1N=C(c2ccco2)OC1c1ccc(-c2ccccc2)cc1 (centres undefined),1.99,/
CCCc1cc(C(=O)Cc2csc(C)n2)c(O)cc1O,0.08,-1.51
O=C(Nc1nnc2n1CCCS2)c1cc(=O)c2ccccc2o1,1.31,/
COc1cc(CNCCSc2nnnn2C)cc(Cl)c1OCc1ccccc1,0.78,0.9
CCN(CC)CCCC(C)Nc1nc(C)nc2cc(Cl)ccc12 (centres undefined),0.56,-1.15
COc1cc(-c2n[nH]c(=S)n2-c2ccccc2)cc(OC)c1OC,/,-0.98
O=C(NC1CCCC1)c1ccc(CS(=O)c2ccc(Br)cc2)o1 (centres undefined),0.45,-0.76
Cc1ccccc1N1CC23C=CC(O2)C(C(=O)O)C3C1=O (centres undefined),0.63,-0.5
COC(=O)c1cc(S(=O)(=O)Nc2cc(OC)ccc2OC)cn1C,1.96,-1.66
Nc1nc(N)c(S(=O)(=O)c2ccccc2)c(NC2CCCCC2)n1,0.84,-2.36
CCOC(=O)C1=C(C)Nc2nc3ccccc3n2C1c1ccccc1F (centres undefined),0.9,2.24
N#C/C(=C\NCc1cccs1)S(=O)(=O)Cc1ccc(Cl)cc1,/,-1.75
CCOC(=O)c1nc(N2CCc3ccccc32)c2ccccc2n1,1.89,/
CN1CCOc2cc(S(=O)(=O)NC3CCCCNC3=O)ccc21 (centres undefined),/,-1.7
COc1ccc(Br)cc1C1N2CC3(C)CN1CC(C)(C2)C3 (centres undefined),0.45,-0.66
O=C(Nc1cccc(F)c1)C1Nc2ccccc2S(=O)(=O)N1 (centres undefined),0.27,/
O=C(O)CCC(=O)Nc1ccccn1,/,-2.08
O=c1ccc(-c2ccc(F)cc2)nn1CCNS(=O)(=O)c1ccc(Br)cc1,0.61,/
CCOC(=O)Cc1csc(NS(=O)(=O)c2ccc3c(c2)CCO3)n1,/,-1.01
COc1ccccc1NC(=O)CSc1nncn2c1cc1occc12,-4.66,/
O=C(O)[C@@H]1Cc2ccccc2N1,/,-0.72
COc1ccc(N=C2SCC(C(C)(C)C)=NN2C)cc1,/,-0.37
Cn1nnnc1NCc1ccc(-c2ccc(Cl)cc2)o1,0.49,/
Cn1nnc2c(NCCC(c3ccccc3)c3ccccc3)ncnc21,1.13,/
O=C(O)CCC(=O)c1ccc2c(c1)OCCO2,2.2,-1.18
CSc1nn(-c2c(Cl)cc(C(F)(F)F)cc2Cl)c(N)c1C#N,/,-0.57
Cc1cc(N2CCc3ccccc32)nc(-n2nc(C)cc2C)n1,0.59,/
COC(=O)C1=C(C)N(CC2CCCO2)C(=O)C1 (centres undefined),/,-0.64
C#CCOc1ccc(C2C(C(=O)OC)=C(C)NC3=C2C(=O)c2ccccc23)cc1Cl (centres undefined),-2.61,-0.06
Cc1ccc(N2C(=O)c3sc4nc(C)cc(C)c4c3NC2C)cc1 (centres undefined),1.35,-0.32
O=C(c1cc2c(s1)-c1ccccc1OC2)N1CCN(c2ccccc2)CC1,2.04,-1.23
CC1=C(C(=O)N2CCCCC2)C(c2ccc(F)c(Br)c2)C2=C(CCCC2=O)N1 (centres undefined),1.37,/
